PINK1 modulator: modulators of PINK1 expression | 410,000 compounds, 0.2% hits | Potency, µM (series often up to 76.6 µM), for inactives: at the top dose activation (PINK1 increase), usual class: activators | PINK1 immunofluorescence, high-content cytometry, 24 h; active = well fitted activation curve with a large enough effect; inconclusive = small, poorly fitted or top-dose-only effect; inactive = flat fitted curve, though single readings scatter; cell line not stated here;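 further: potency means the concentration at half of the fitted maximal effect; % of control where 0% means no effect; nearly all actives have a fitted effect of over 65% in size; a mitochondrial uncoupler was the plate control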
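Compound titrations (5 concentrations, 24 h) on a stable cell line; DMSO and CCCP controls. Endpoint: fixed-cell PINK1 immunofluorescence with mitochondrial, cell and nuclear markers, scanned by microplate cytometer.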
Menin-MLL FL inh: displaces fluorescein MLL peptide from human menin. 290,000 tested, under 10 active. FP activity change, % at 61.4 µM. Fluorescence polarization, fluorescein-MLL peptide displacement from menin. AID 1766; inconclusive = falling polarisation curve, or a change in total fluorescence; inactive = total fluorescence flat and polarisation flat or rising; no compound was filed as active; the % refers to the polarisation; negative = inhibition;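 further: % of control where 0% means no effect; inhibitors lower the polarisation; unlabelled MLL peptide was the positive control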
D2 agonist: agonists of human D2 dopamine receptor (beta-arrestin). AID 624465. activation, % (test concentration not listed). DiscoveRx PathHunter D2 beta-arrestin, luminescence, 90 min; 100% = 57 uM dopamine signal. 360,000 compounds, 0.084% hits; in the data active = activation above about 40%; inconclusive = about 15% to 40%; inactive = below about 15%; further: compound concentration not given in the record; the text of the record calls up to 30% inactive
Target sequence (P14416 whole entry, looked up): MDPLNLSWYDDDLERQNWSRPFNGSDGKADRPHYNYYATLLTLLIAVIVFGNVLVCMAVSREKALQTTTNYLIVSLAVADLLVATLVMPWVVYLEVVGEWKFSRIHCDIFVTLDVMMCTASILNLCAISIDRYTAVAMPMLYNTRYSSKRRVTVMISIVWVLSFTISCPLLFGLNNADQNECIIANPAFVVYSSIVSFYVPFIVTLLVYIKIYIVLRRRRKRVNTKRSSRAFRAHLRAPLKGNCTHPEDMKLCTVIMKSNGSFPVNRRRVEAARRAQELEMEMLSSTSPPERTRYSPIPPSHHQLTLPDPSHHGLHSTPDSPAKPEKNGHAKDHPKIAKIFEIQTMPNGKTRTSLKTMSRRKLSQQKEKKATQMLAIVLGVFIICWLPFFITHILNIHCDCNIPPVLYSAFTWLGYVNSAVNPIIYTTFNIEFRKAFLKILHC
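Agonist mode: compounds alone added to overnight-plated D2 PathHunter cells for 90 min at 37 C, with 57 uM final dopamine (EC100) defining full response. Beta-arrestin recruitment detected by chemiluminescent reagent, read after 1 h at ambient temperature.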
Sfp inh: Sfp phosphopantetheinyl transferase inhibition; AID 1490; Biochemical Sfp PPTase activity, qHTS; Q9F4F7; Potency, µM, for the others: max response, negative = inhibition, actives largely listed as inhibitors; 310,000 compounds, 3.5% hits; active means well fitted inhibition curve with a large enough effect; inconclusive means small, poorly fitted or top-dose-only effect, or another doubt; inactive means no such curve, though single readings can be large or run the other way;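 further: the enzyme is Sfp with the accession as filed and its product quenches rhodamine fluorescence; potency means the concentration at half of the fitted maximal effect; 0% = enzyme reaction without inhibitor and -100% = no enzyme wells; top concentration of the series not given in the record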
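After 15 min at room temperature with compound, 15 nM Sfp received 5 uM rhodamine-CoA plus 12.5 uM BHQ-2-ybbR (50 mM Hepes pH 7.6, 10 mM MgCl2). Rate came from the fluorescence difference over 30 min, ex 525/em 598 nm.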
gsp antag: gsp mutant antagonism; Potency, µM (titrated, usually from 76.9 µM), for inactives: top-dose activity change, negative = inhibition, actives largely listed as inhibitors; gsp-mutant cells, cAMP HTRF, 30 min; control for the full effect not named in the record; 340,000 compounds, 0.4% hits; AID 624288; active = falling curve of any shape with a large fitted effect; inconclusive = falling curve, mostly with a smaller effect; inactive = flat or rising curve; cell line not stated here;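 further: intracellular cAMP measured with PDE inhibitor Ro 20-1724 present during compound exposure; potency means the concentration at half of the fitted maximal effect; on the % scale 0 is the no-effect control and ±100 the full control effect; nearly all actives have a fitted effect of over 65% in size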
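Measurement of cellular cAMP by homogeneous time-resolved fluorescence following a 30 min compound exposure at 37C. The PDE inhibitor […] was present throughout; the assay buffer was DPBS with 0.05% BSA and 0.005% Tween 20.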
gsp ag: agonists of gsp mutant (McCune-Albright syndrome). gsp mutant cells, cAMP HTRF, 30 min; control for the full effect not named in the record. Potency, µM (titrated, usually from 76.9 µM), for inactives: at the highest dose activation (cAMP increase), actives largely listed as activators. 340,000 compounds, 0.13% hits; active = well fitted activation curve with a large enough effect; inconclusive = small, poorly fitted or top-dose-only effect, or another doubt; inactive = no such curve, though single readings can be large or run the other way; cell line not stated here;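 further: phosphodiesterase inhibitor Ro 20-1724 added with compounds to block cAMP breakdown; potency means the concentration at half of the fitted maximal effect; nearly all actives have a fitted effect of over 60% in size; about a fifth of the inactives were tested at one dose only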
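Cells in DMEM/10% FBS with G418 were pretreated with compounds in DMSO plus […] (300 uM stock) for 30 min at 37C. cAMP was measured by HTRF (cAMP-d2 plus anti-cAMP antibody-K) after 30 min at room temperature.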
ClpP mod: qHTS Assay for Activators of ClpP. ATP-dependent Clp protease proteolytic subunit (Bacillus subtilis (strain 168)), P80244. purified B. subtilis ClpP, FRET peptide cleavage, 20 min. Potency, µM (series often up to 57.5 µM), for the others: at the highest dose activity change, negative = active. 340,000 compounds, 1.9% hits; active = well fitted falling curve with a large enough effect; inconclusive = small, poorly fitted or top-dose-only effect; inactive = no such curve, though single readings can be large or run the other way; further: potency means the concentration at half of the fitted maximal effect; the source files actives as falling curves though it sought activators and does not explain the sign; nearly all actives have a fitted effect of over 65% in size; many hits overshoot -100%
Target sequence (P80244 whole entry, looked up): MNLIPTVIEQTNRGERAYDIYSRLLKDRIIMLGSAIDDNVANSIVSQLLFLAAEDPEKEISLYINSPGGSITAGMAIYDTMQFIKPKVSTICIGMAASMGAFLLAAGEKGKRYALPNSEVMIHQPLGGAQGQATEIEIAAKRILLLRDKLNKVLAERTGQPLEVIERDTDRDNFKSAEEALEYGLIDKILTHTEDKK
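FRET quenching reversal measured ClpP activation: 10 microg/mL B. subtilis ClpP at pH 8 with the FRET-FV decapeptide, read at 430 nm after 320 nm excitation. The 20-min minus 0-min signal was scaled between DMSO/no-enzyme wells and ADEP (5.8 microM final).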
An asterisk follows results filed as active; [ ] = dose if it differs, or a comment. An unsorted share of the library (roughly 5.1% active in at least one column).

The opening 2 compounds as a preview:
Results for COc1ccc(-c2csc(NC(CO)c3nc4ccccc4n3Cc3ccc(C)cc3)n2)cc1 (stereo unspecified) ?
PINK1 modulator: -0.2%; D2 agonist: -6.2; gsp antag: -10%; gsp ag: -13%; ClpP mod: -3.1%

How did CN(C(=O)c1ccco1)c1ccccc1C(=O)O do in these assays?
PINK1 modulator: 1.3%; Menin-MLL FL inh: 1.2; D2 agonist: -0.6; Sfp inh: 11%; gsp antag: 4%; gsp ag: -15%; ClpP mod: -0.6%

Main list, previewed entries included:
Results for COc1ccc(-c2csc(NC(CO)c3nc4ccccc4n3Cc3ccc(C)cc3)n2)cc1 (stereo unspecified) ?
PINK1 modulator: -0.2%; D2 agonist: -6.2; gsp antag: -10%; gsp ag: -13%; ClpP mod: -3.1%

How did CN(C(=O)c1ccco1)c1ccccc1C(=O)O do in these assays?
PINK1 modulator: 1.3%; Menin-MLL FL inh: 1.2; D2 agonist: -0.6; Sfp inh: 11%; gsp antag: 4%; gsp ag: -15%; ClpP mod: -0.6%

Results for CC(C)C(c1nnnn1C(C)(C)C)N1CCC(Cc2ccccc2)CC1 (stereo unspecified) ?
PINK1 modulator: inconclusive; Menin-MLL FL inh: 18; D2 agonist: -0.6; Sfp inh: -3%; gsp antag: -10%; gsp ag: -18%; ClpP mod: -0.6%

Results for COc1ccc(C(=O)CC(C#N)c2ccc3c(c2)OCO3)cc1OC (stereo unspecified) ?
PINK1 modulator: 1.1%; D2 agonist: 1.5; gsp ag: -2%; ClpP mod: -0.7%

What do the screens show for `O=C(CNC(=O)c1ccccc1F)OCc1csc(-c2ccccc2)n1`?
PINK1 modulator: 1.6%; Menin-MLL FL inh: -0.5; D2 agonist: -0.1; Sfp inh: 12%; gsp antag: inconclusive; gsp ag: 12%[15.4 µM]

How did Cc1cc(=O)n2[nH]c(N)c(N=Nc3ccccc3)c2n1 do in these assays?
PINK1 modulator: 6.5%; Menin-MLL FL inh: -1.0; D2 agonist: -8.7; Sfp inh: 30%; gsp antag: inconclusive; gsp ag: 4%; ClpP mod: -5.2%

How did Cc1cc(C)c2sc(C)[n+](CCCS(=O)(=O)[O-])c2c1 do in these assays?
PINK1 modulator: 4.2%; Menin-MLL FL inh: -2.8; D2 agonist: -4.1; Sfp inh: 2.5µM*; gsp antag: 11%; gsp ag: inconclusive; ClpP mod: -1.9%

Results for Cc1ccc(S(=O)(=O)CC(=O)Nc2cccc(C)n2)cc1 ?
PINK1 modulator: 1.4%; Menin-MLL FL inh: 1.6; D2 agonist: -3.4; Sfp inh: 4%; gsp antag: 7%; gsp ag: 19%

What do the screens show for `COC(=O)C(=O)/C=C(\O)c1ccc(C)cc1`?
PINK1 modulator: 1.5%; Menin-MLL FL inh: 2.2; D2 agonist: -8.5; Sfp inh: inconclusive; gsp antag: 13%; gsp ag: -6%[15.4 µM]; ClpP mod: -2.0%

How did Cc1c(C(=O)NCCNc2ncc(C(F)(F)F)cc2Cl)cccc1[N+](=O)[O-] do in these assays?
PINK1 modulator: 0.2%; Menin-MLL FL inh: -3.6; D2 agonist: -0.3; Sfp inh: 4%; gsp antag: -7%; gsp ag: -18%[15.4 µM]

Results for Cc1ccc(CN2CC(C(=O)Nc3cccc(S(=O)(=O)N4CCCCC4)c3)CC2=O)cc1 (stereo unspecified) ?
PINK1 modulator: 2.2%; Menin-MLL FL inh: 1.0; D2 agonist: -0.9; Sfp inh: -3%; gsp antag: -8%; gsp ag: 7%; ClpP mod: -4.4%

How did COc1cc(NS(=O)(=O)c2ccc(-n3cccn3)cc2)cc(OC)c1 do in these assays?
PINK1 modulator: 1.6%; D2 agonist: 2.9; gsp ag: -28%; ClpP mod: -2.6%

How did O=C(NCC(c1ccc(F)cc1)N1CCOCC1)c1cccnc1Sc1ccccc1Cl (stereo unspecified) do in these assays?
PINK1 modulator: -0.2%; D2 agonist: -6.9; gsp antag: -11%; gsp ag: -12%[15.4 µM]; ClpP mod: -0.1%

What do the screens show for `O=C(CN1C(=O)c2cccc([N+](=O)[O-])c2C1=O)NNC(=O)c1ccc(F)cc1`?
PINK1 modulator: 1.8%; D2 agonist: 6.5; gsp antag: -13%; gsp ag: -16%; ClpP mod: -0.8%

Results for CCOC(=O)C1=C(N)N2C(=O)C(C)SC2=C(C(=O)OCC)C1c1cc(OC)c(OC)c(OC)c1 (stereo unspecified) ?
PINK1 modulator: 0.3%; Menin-MLL FL inh: -0.1; D2 agonist: -7.5; Sfp inh: -11%; gsp antag: -19%; gsp ag: -41%[inhibitor]; ClpP mod: 1.2%

What do the screens show for `CN(C)S(=O)(=O)n1cc(/C=C(\NC(=O)c2ccccc2Cl)C(=O)N2CCCC2)c2ccccc21`?
PINK1 modulator: 3.4%; Menin-MLL FL inh: -1.1; D2 agonist: 7.7; Sfp inh: 3%; gsp antag: -4%; gsp ag: inconclusive; ClpP mod: -5.3%

How did COc1ccccc1OCCNC(=O)/C=C/c1ccc([N+](=O)[O-])cc1 do in these assays?
PINK1 modulator: 3.8%; Menin-MLL FL inh: 4.2; D2 agonist: -3.9; Sfp inh: 3%; gsp antag: -12%; gsp ag: -38%[inhibitor]; ClpP mod: 1.2%

What do the screens show for `Cc1ccc2oc(C(=O)Nc3nnc(CC(C)C)s3)c(C)c2c1`?
PINK1 modulator: 8.7%; D2 agonist: -1.4; Sfp inh: 2%; gsp antag: -7%; gsp ag: 15%; ClpP mod: -3.2%

What do the screens show for `CCN(CC(O)Cn1c2ccccc2c2ccccc21)S(=O)(=O)c1ccc(C)cc1` (stereo unspecified)?
PINK1 modulator: 27%; Menin-MLL FL inh: -0.6; D2 agonist: 1.2; Sfp inh: 9%; gsp antag: -9%; gsp ag: 10%; ClpP mod: inconclusive

Results for COc1ccc(/C=N\NC(=O)c2cc(O)c(O)c(O)c2)cc1CN1CCN(c2ccc(F)cc2)CC1 ?
PINK1 modulator: -0.1%; Menin-MLL FL inh: 0.0; D2 agonist: 4.0; Sfp inh: 14µM*; gsp antag: -2%; gsp ag: 16%; ClpP mod: -4.8%

Results for O=C(Nc1ccccc1-c1nnn(CC(=O)N2CCN(c3ccccc3)CC2)n1)c1cccs1 ?
Menin-MLL FL inh: -1.9; D2 agonist: -0.2; Sfp inh: 8%; gsp antag: -12%; gsp ag: -9%; ClpP mod: -20%

How did CCN1C[C@@H]2[C@@H]3C(=O)N(C)C(=O)[C@@H]3[C@](Cc3ccccc3)(C(=O)OC)N2C1=NCc1ccccc1 do in these assays?
PINK1 modulator: 0.4%; D2 agonist: -1.8; gsp antag: 8%; ClpP mod: -2.1%

Results for Cc1nn(C(=O)c2cccc([N+](=O)[O-])c2)c(C)c1Cl ?
PINK1 modulator: 2.3%; Menin-MLL FL inh: 2.6; D2 agonist: -0.7; Sfp inh: 10%; gsp antag: 2%; gsp ag: -34%[inhibitor]

Results for O=C(CSc1n[nH]c(-c2cccs2)n1)NCc1ccc2c(c1)OCO2 ?
PINK1 modulator: 0.3%; Menin-MLL FL inh: -2.3; D2 agonist: -1.5; Sfp inh: 10%; gsp antag: -1%; gsp ag: -13%; ClpP mod: -8.2%

What do the screens show for `O=C(CNCC1CCCO1)N1CCCc2ccccc21` (stereo unspecified)?
PINK1 modulator: inconclusive; Menin-MLL FL inh: 2.3; D2 agonist: 0.1; Sfp inh: -11%; gsp antag: 8%; gsp ag: -7%; ClpP mod: inconclusive

How did CCCN1C(=O)C(O)(C2CC(=O)CC(C)(C)O2)c2ccccc21 (stereo unspecified) do in these assays?
PINK1 modulator: 2.6%; Menin-MLL FL inh: -0.6; D2 agonist: -1.9; Sfp inh: 16%; gsp antag: 3%; gsp ag: inconclusive; ClpP mod: -7.5%

What do the screens show for `O=C(O)CN1C(=O)C2C3C=CC(C3)C2C1=O` (stereo unspecified)?
PINK1 modulator: 0.7%; Menin-MLL FL inh: -0.5; D2 agonist: -1.6; Sfp inh: 5%; gsp antag: 10%; gsp ag: inconclusive; ClpP mod: 0.8%

What do the screens show for `COC(=O)c1ccc(NC(=O)CSc2nc(C)cc(=O)[nH]2)cc1`?
PINK1 modulator: -1.9%; Menin-MLL FL inh: 0.4; D2 agonist: -1.0; Sfp inh: 12%; gsp antag: -12%; gsp ag: -19%; ClpP mod: 0.8%

Results for Cc1cc(C(=O)NC(Cc2c[nH]c3ccccc23)C(=O)O)c(C)o1 (stereo unspecified) ?
PINK1 modulator: 1.0%; Menin-MLL FL inh: 5.3; D2 agonist: 3.0; Sfp inh: 12%; gsp antag: 14%; gsp ag: -1%[15.4 µM]; ClpP mod: -1.7%

How did CN(c1nc2nonc2nc1NC1CC1)C1CCOC1 (stereo unspecified) do in these assays?
PINK1 modulator: -2.6%; Menin-MLL FL inh: 0.4; D2 agonist: 1.3; Sfp inh: 22%; gsp antag: 5%; gsp ag: 4%

How did CN1CCc2c(sc3nc(SCC(N)=O)n(-c4ccc(Cl)cc4)c(=O)c23)C1 do in these assays?
PINK1 modulator: -0.4%; Menin-MLL FL inh: inconclusive; D2 agonist: -3.5; Sfp inh: -20%; gsp antag: 2%; gsp ag: 1%; ClpP mod: 4.1%

How did COc1ccc(CC(=O)Oc2ccc(C)cc2Br)cc1OC do in these assays?
PINK1 modulator: -0.9%; D2 agonist: -0.4; Sfp inh: -1%; gsp antag: 2%; gsp ag: 7%; ClpP mod: -3.4%

How did CCOC(=O)c1cccc(NC(=O)CSc2nc3cccnc3n2C)c1 do in these assays?
PINK1 modulator: 1.1%; Menin-MLL FL inh: 2.7; D2 agonist: -0.7; Sfp inh: 9%; gsp antag: inconclusive; gsp ag: -18%; ClpP mod: -0.4%

What do the screens show for `C=C1CCC(C2CC(=O)OC2=O)C(=O)CCC2C1CC2(C)C` (stereo unspecified)?
PINK1 modulator: 1.2%; Menin-MLL FL inh: -0.4; Sfp inh: 15%

Compound activity deposited in PubChem BioAssay by National Center for Advancing Translational Sciences (NCATS).
